High-throughput results deposited in PubChem by several laboratories.
MT1-MMP act inh = blocks activation of human MT1-MMP | P50281 | HT1080 RFP-PRO-GFP cells, GFP/RFP ratio fluorescence, overnight; percent of plate control window, DMSO zero | GFP/RFP ratio change, % at 20 µM | 360,000 tested, 0.061% active | AID 651647;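 active = GFP/RFP ratio change of at least 30% with cell ATP level not reduced by more than half and red fluorescence within 50% of control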; also: strong numbers were not always called active
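Assay system: HT1080 cells carrying an RFP-PRO-GFP reporter | Dosing: Single dose of 20 µM compound, 1% DMSO final | Incubation: Cells overnight before dosing, compound overnight, 37 °C, 5% CO2 | Evaluation: GFP/RFP fluorescence ratio | Control set: DMSO and RFP-L50D-GFP cell wells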
Env fusion inh = HIV envelope-mediated fusion inhibition; 360,000 tested, 1.1% active; AID 651610; inhibition, % at 12.3 µM; HeLa-JRFL Env/CEM21 cell fusion, luciferase;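 active = mean replicate inhibition score of at least 50 and every replicate individually at or above 50; inconclusive = only one of the two criteria met; inactive = mean below 50 and not all replicates reaching 50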;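 also: 0% = plate neutral controls and 100% = maraviroc near 300 nM; one replicate is shown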
CSC inhib = blocks cancer stem cells; cancer stem cell-like cells viability, luminescence; inhibition, % at 7.5 µM; 300,000 tested, 1.1% active;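 active = mean at 75% or more and at least half the replicates too; inconclusive = mean and replicates disagree; tested in HMLE shEcad cells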;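 also: 0% = median of negative and 100% = median of positive control wells; the first replicate is given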
UUG fidelity = alters start codon recognition fidelity in yeast | S. cerevisiae UUG-firefly luciferase reporter, luminescence/redox ratio | activity score, % at 18.7 µM | 350,000 tested, 0.13% active | AID 602363;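 active = replicate mean at a twofold rise or more, about +100% in these data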;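 also: firefly luciferase made from a UUG start codon reports start codon fidelity; reporter light over untreated wells divided by growth signal over untreated wells; some hits fall short of that in this replicate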
Rce1 inh = blocks yeast Ras-converting enzyme; calls only; 290,000 tested, 0.27% active; Q03530; yeast membranes, quenched prenylated peptide cleavage fluorescence;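 active = fall in fluorescence gain of 50% or more versus controls, with final raw signal at or below 3038400; inconclusive = same 50% fall but final raw signal above 3038400; inactive = fall in fluorescence gain under 50%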;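 also: plate controls were neutral control wells for no effect and wells lacking membranes for full effect; tested at 10 µM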
Target sequence (Q03530 whole entry, looked up): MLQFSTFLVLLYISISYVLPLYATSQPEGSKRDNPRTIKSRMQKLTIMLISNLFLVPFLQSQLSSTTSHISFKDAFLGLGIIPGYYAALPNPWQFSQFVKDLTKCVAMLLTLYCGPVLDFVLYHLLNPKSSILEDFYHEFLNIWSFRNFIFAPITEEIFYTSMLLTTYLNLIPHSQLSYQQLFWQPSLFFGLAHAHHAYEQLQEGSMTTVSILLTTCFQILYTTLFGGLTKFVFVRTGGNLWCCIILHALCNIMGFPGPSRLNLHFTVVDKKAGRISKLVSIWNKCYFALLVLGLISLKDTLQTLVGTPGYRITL
PABP polyA inh = blocks human PABP binding to poly(A) RNA | 290,000 tested, 1% active | inhibition, % at 35 µM | P11940 | fluorescence polarization;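 active = 50% or more with normal probe brightness, or confirmed in later tests; inconclusive = above 50% with abnormal brightness, or retests that disagree; inactive = below 50% or failed in later tests; about a fifth of its hits are not listed in these tables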;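 also: calls also rest on retests at 20 µM and on dose response follow-up; controls were probe without protein and protein plus probe with vehicle; some compounds called inactive have numbers as strong as hits; many hits fall short of the cut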
Target sequence (P11940 whole entry, looked up): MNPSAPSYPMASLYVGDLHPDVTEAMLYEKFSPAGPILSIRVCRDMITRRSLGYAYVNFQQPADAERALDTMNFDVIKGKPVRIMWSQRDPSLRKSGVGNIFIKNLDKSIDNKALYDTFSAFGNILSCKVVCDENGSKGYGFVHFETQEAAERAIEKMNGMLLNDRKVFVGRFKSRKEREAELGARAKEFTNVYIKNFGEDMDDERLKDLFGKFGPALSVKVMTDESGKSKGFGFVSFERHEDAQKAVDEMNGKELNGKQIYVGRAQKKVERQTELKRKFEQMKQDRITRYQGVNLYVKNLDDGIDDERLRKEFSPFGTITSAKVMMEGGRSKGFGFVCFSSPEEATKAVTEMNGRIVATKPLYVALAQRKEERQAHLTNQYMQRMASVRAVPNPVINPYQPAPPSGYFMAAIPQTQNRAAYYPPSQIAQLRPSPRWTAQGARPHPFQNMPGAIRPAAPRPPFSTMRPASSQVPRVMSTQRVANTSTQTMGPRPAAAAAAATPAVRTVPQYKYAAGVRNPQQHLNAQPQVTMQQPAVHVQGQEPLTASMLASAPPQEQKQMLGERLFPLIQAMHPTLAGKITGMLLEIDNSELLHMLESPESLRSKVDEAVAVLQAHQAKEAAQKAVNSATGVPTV
eIF4H inh = inhibitors of RNA binding by human eIF4H | Q15056 | eIF4H fluorescence polarization binding assay | 290,000 tested, 0.94% active | inhibition, % at 35 µM;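 active = 50% or more with normal probe brightness, or confirmed in later tests; inconclusive = above 50% with abnormal brightness, or retests that disagree; inactive = below 50% or failed in later tests; about a fifth of its hits are not listed in these tables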;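 also: calls also rest on retests at 20 µM and on dose response follow-up; 0% = protein and probe with vehicle and 100% = probe without protein; strong numbers were not always called active; many hits fall short of the cut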
eIF4H inh retest = further read-out of eIF4H inh, marked with its call; inhibition, %; compound at 20 µM; confirmation average;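 mean of two retest wells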
PABP polyA inh retest = further read-out of PABP polyA inh, marked with its call; inhibition, %; compound at 20 µM; confirmation repeats;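 mean of two retest wells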
MT1-MMP act inh RFP = recorded beside MT1-MMP act inh, whose call it bears; RFP signal change, %; measured here: RFP expression control read;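 0 = vehicle wells; hits needed this value within 50% of zero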
Active calls of the source: *; i = inactive; ? = inconclusive; · = not tested or not shown. An excerpt; count on the stated rates, not on these rows.

SMILES | MT1-MMP act inh | MT1-MMP act inh RFP | Env fusion inh | CSC inhib | UUG fidelity | Rce1 inh | PABP polyA inh | eIF4H inh | others
O=C(c1ccccc1)N(Cc1ccc(F)cc1)Cc1nc2ccccc2c(=O)[nH]1 | 2 | -4 | · | 2 | -18 | · | -6 | -1
COC(=O)c1ccccc1NC(=O)COC(C)=O | -3 | 5 | · | 1 | -11 | i | 5 | 4
Cc1ccnc(SCCn2c(N(C)Cc3ccccc3)nc3c2c(=O)n(C)c(=O)n3C)n1 | 3 | -5 | -79 | -8 | -22 | i | · | ·
COC(=O)c1ccccc1NC(=S)NC(=O)c1ccccc1C | -5 | -3 | -35 | 20 | -12 | i | -3 | -4
Cc1cc2c(c(SCC(=O)NCc3ccc(Cl)cc3)n1)C(=O)OC2 | -3 | -2 | 18 | -7 | · | i | 6 | 7
O=C(NCc1cccnc1)c1cc(C2CCCCN2C(=O)c2ccc3ccccc3c2)on1 (stereo not given) | -3 | -7 | 2 | · | -6 | · | · | ·
CC(NC(=O)CSc1n[nH]c(=O)[nH]c1=O)C1CC2CCC1C2 (stereo not given) | 4 | 2 | 0 | -1 | · | i | 5 | -8
CCN(c1ccccc1)S(=O)(=O)c1ccc(NC(=S)NC(=O)c2ccc(Br)o2)cc1 | 2 | -6 | · | 5 | · | i | 4 | -5
O=C(O)c1ccccc1Nc1ccnc(Cl)n1 | -3 | 3 | 2 | -11 | · | i | 15 | 1
CC1(C)CNC(=O)c2sc(N3CCOCC3)nc2C1 | -4 | 0 | · | -12 | -6 | i | 2 | 13
COC(=O)C1=C(C(=O)OC)SC(=C2C(=S)C(C)(C)N(C(=O)C(C)C)c3ccccc32)S1 | 31* | 1.6* | 8 | 14 | -12 | · | 8 | -9
C=CCOc1ccc2ccccc2c1CNn1c(C)n[nH]c1=S | -3 | -2 | -6 | -16 | -19 | i | -1 | -5
CC1(C(=O)NCCCN2CCCC2=O)CCN1CCc1ccccc1 (stereo not given) | -2 | -2 | -26 | · | -18 | · | · | ·
O=C(CNC(=O)c1ccccc1F)NCCc1ccc(Cl)cc1Cl | -2 | 2 | 5 | -4 | 13 | i | 7 | 0
COC(=O)C(=CC(=CN(C)C)C=C(C(=O)OC)C(=O)OC)C(=O)OC | 0 | 1 | 1 | -2 | 3 | i | -7 | -6
O=C(NC(=S)NCC1CCCO1)c1ccco1 (stereo not given) | 4 | 5 | -4 | -11 | · | i | -8 | -2
Cc1cccc(N2CCN(C(=O)c3ccc(N4CCCC4=O)cc3)CC2C)c1 (stereo not given) | 6 | -7 | 21 | · | -9 | i | 15 | -2
CCOC(=O)c1cccc(NC(=O)N2CCOCC2)c1 | 1 | 1 | -16 | · | -13 | i | 0 | 0
O=C(CSc1nc(O)c(Cc2ccccc2)c(=O)[nH]1)Nc1ccccc1 | 3 | 0 | -55 | -12 | · | i | -7 | 1
NC(=O)c1nsc(C(=O)N(c2cccc(F)c2)C(C(=O)NC2CCCC2)c2ccco2)c1N (stereo not given) | 0 | 0 | 10 | 3 | -15 | i | 10 | -12
CCCN1C(=O)CN(C2CCCCCC2)C(=O)C1c1ccc(C)cc1 (stereo not given) | -6 | -1 | 42 | · | -17 | i | -7 | -4
Nc1ncnc2c1ncn2[C@@H]1O[C@H](C(=O)NCC(F)(F)F)[C@@H](O)[C@H]1O | -1 | 4 | -1 | · | -12 | · | · | ·
COc1ccc(NC(=S)NNc2ccc(C(=O)O)cc2)cc1 | 0 | 1 | -19 | 4 | -58 | i | 11 | 9
CC(C)(C)C1CCC(=NNc2nc3ccccc3[nH]2)CC1 (stereo not given) | 7 | 8 | -5 | -10 | · | i | 51* | 13 | eIF4H inh retest=38;PABP polyA inh retest=62*
CCOc1ccc(CN2CCNC(=O)C2CC(=O)OC)cc1 (stereo not given) | -1 | -1 | -12 | -9 | -23 | i | 0 | -5
NNC(=O)CNc1ccccc1Cl | 2 | 4 | -9 | 4 | -15 | i | 1 | -4
CCN(C[C@H]1N[C@@](Cc2ccccc2)(C(=O)OC)[C@H]2C(=O)N(C)C(=O)[C@@H]12)C(=O)c1ccccc1 | 2 | 4 | · | -8 | 12 | · | · | ·
CC1CCCCN1C(=O)CCC(=O)Nc1nnc(C2CCCCC2)s1 (stereo not given) | 1 | -1 | -3 | 2 | 11 | i | · | ·
COc1ccc(C(CNC(=O)CSc2ccc(Br)cc2)N2CCOCC2)cc1 (stereo not given) | 7 | 0 | 34 | -1 | · | i | · | ·
COCCNC(=O)C1CCN(C(=O)C2CC(=O)N(c3ccc(C)cc3)C2)CC1 (stereo not given) | 0 | 1 | 6 | -14 | 3 | · | -3 | -9
Cc1ccc(NC2=CC(=O)CC(c3ccccc3)C2)cc1 (stereo not given) | -7 | -13 | 25 | 62 | · | i | 6 | 1
CC(c1ccccc1)n1cc(C(=O)NCC2COc3ccccc3O2)nn1 (stereo not given) | 7 | 3 | ? | -6 | -10 | · | -10 | 0
O=C(NCCCn1ccnc1)/C(=C/c1ccco1)NC(=O)c1ccco1 | 2 | 5 | 4 | -4 | -15 | i | -9 | -3
CCOC(=O)C1(C)Oc2cccnc2NC1=O (stereo not given) | -2 | 1 | -9 | -13 | · | i | 6 | 3
O=C(COC(=O)CCc1ccc(S(=O)(=O)N2CCOCC2)cc1)NCc1ccccc1Cl | -2 | 1 | 5 | -20 | -7 | i | 3 | 9
O=C(Nc1cc(S(=O)(=O)N2CCOCC2)ccc1N1CCOCC1)c1ccccc1Cl | -4 | -1 | · | 6 | -21 | · | · | ·
COc1ccc(-c2nc(-c3ccncc3)no2)cc1OC | -4 | -9 | -150 | -1 | -26 | i | 3 | -10
CCCCNC(=S)N1CCn2cccc2C1c1ccc(F)cc1 (stereo not given) | 4 | 4 | 58* | -7 | · | i | -31 | 5
O=C(NCC1(N2CCOCC2)CCCCC1)c1cccc(S(=O)(=O)Nc2ccc(F)cc2)c1 | -1 | -4 | 1 | · | -14 | · | · | ·
COc1ccccc1CNC(=O)Cn1cnc2ccccc2c1=O | -1 | 2 | -15 | · | -12 | i | -8 | 7

Reprinted from the entries so far, eleven compounds:
SMILES | MT1-MMP act inh | MT1-MMP act inh RFP | Env fusion inh | CSC inhib | UUG fidelity | Rce1 inh | PABP polyA inh | eIF4H inh | others
CCN(C[C@H]1N[C@@](Cc2ccccc2)(C(=O)OC)[C@H]2C(=O)N(C)C(=O)[C@@H]12)C(=O)c1ccccc1 | 2 | 4 | · | -8 | 12 | · | · | ·
CC1CCCCN1C(=O)CCC(=O)Nc1nnc(C2CCCCC2)s1 (stereo not given) | 1 | -1 | -3 | 2 | 11 | i | · | ·
COc1ccc(C(CNC(=O)CSc2ccc(Br)cc2)N2CCOCC2)cc1 (stereo not given) | 7 | 0 | 34 | -1 | · | i | · | ·
COCCNC(=O)C1CCN(C(=O)C2CC(=O)N(c3ccc(C)cc3)C2)CC1 (stereo not given) | 0 | 1 | 6 | -14 | 3 | · | -3 | -9
Cc1ccc(NC2=CC(=O)CC(c3ccccc3)C2)cc1 (stereo not given) | -7 | -13 | 25 | 62 | · | i | 6 | 1
CC(c1ccccc1)n1cc(C(=O)NCC2COc3ccccc3O2)nn1 (stereo not given) | 7 | 3 | ? | -6 | -10 | · | -10 | 0
O=C(NCCCn1ccnc1)/C(=C/c1ccco1)NC(=O)c1ccco1 | 2 | 5 | 4 | -4 | -15 | i | -9 | -3
CCOC(=O)C1(C)Oc2cccnc2NC1=O (stereo not given) | -2 | 1 | -9 | -13 | · | i | 6 | 3
O=C(COC(=O)CCc1ccc(S(=O)(=O)N2CCOCC2)cc1)NCc1ccccc1Cl | -2 | 1 | 5 | -20 | -7 | i | 3 | 9
O=C(Nc1cc(S(=O)(=O)N2CCOCC2)ccc1N1CCOCC1)c1ccccc1Cl | -4 | -1 | · | 6 | -21 | · | · | ·
COc1ccc(-c2nc(-c3ccncc3)no2)cc1OC | -4 | -9 | -150 | -1 | -26 | i | 3 | -10

Other entries:
SMILES | MT1-MMP act inh | MT1-MMP act inh RFP | Env fusion inh | CSC inhib | UUG fidelity | Rce1 inh | PABP polyA inh | eIF4H inh | others
CC(=O)c1ccc([N+](=O)[O-])c(CS(=O)(=O)c2ccc(Cl)cc2)c1 | 0 | 0 | -14 | 2 | -38 | i | 11 | 85 | eIF4H inh retest=0;PABP polyA inh retest=8
COc1cc2c(cc1OC)-c1cc(Nc3cccc(C)c3)nc(=O)n1CC2 | 7 | 8 | -3 | 3 | 6 | i | -1 | -2
COc1ccc(NC(=O)Cn2nnc(C(=O)Nc3ccc(F)c(Cl)c3)c2N)cc1 | 11 | 9 | -8 | -1 | -21 | i | 0 | 1
O=C(NC1CCCCC1)C(CCc1ccccc1)N1CCOCC1 (stereo not given) | 2 | 2 | -101 | · | -4 | · | · | ·
N#Cc1c(SCC(=O)O)nc(-c2ccccc2)c2c1CCCC2 | 5 | 7 | · | · | · | i | 1 | -10
CSc1ccccc1C(=O)NCCOc1ccccc1C | -1 | 2 | 0 | -13 | -22 | i | -3 | -3
COc1ccccc1NC(=O)COC(=O)c1c[nH]c2ccccc12 | 7 | -2 | 4 | · | -15 | · | · | ·
O=C(OCc1ccc([N+](=O)[O-])cc1)C1CC(=O)N(CCc2ccccc2)C1 (stereo not given) | 6 | 2 | 4 | · | -2 | i | · | ·
CC(Oc1cccc(Cl)c1)C(=O)Nc1ccc(S(=O)(=O)N(C)C2CCN(C)CC2)cc1 (stereo not given) | 1 | -1 | 5 | · | 4 | · | · | ·
O=C1NC(=O)C(=Cc2ccc(Cl)cc2Cl)S1 | -1 | -11 | -88 | · | -9 | · | · | ·
CCCC(=O)NC(c1ccccc1Cl)c1c(O)ccc2ccccc12 (stereo not given) | -14 | -19 | -81 | 9 | 22 | i | 1 | 10
CN(C)C(=O)c1ccc(Nc2nc(-c3cccs3)nc3ccccc23)cc1 | 0 | -5 | -6 | 31 | 3 | i | 7 | -6
CCN(CC)CCOC(=O)c1ccc(NC(=O)CNC(=O)C2CCCCC2)cc1 | 1 | 2 | 14 | 6 | · | i | 16 | 0
CSCC[C@H](NC(=O)Nc1ccc(Oc2ccccc2)cc1)C(=O)O | 6 | 5 | -1 | -4 | -15 | i | 15 | 9
CCC(=O)CCC(=O)c1ccc2ccccc2c1 | 4 | 3 | -6 | · | · | i | 0 | -3
CNC(=O)CSc1nc2sccc2c(=O)n1-c1ccccc1 | 0 | 1 | 16 | -11 | -16 | i | 4 | 0
Cc1ccccc1CN(CC(=O)Nc1cccc([N+](=O)[O-])c1)S(=O)(=O)c1ccc(Cl)cc1 | 1 | -6 | -4 | 37 | -16 | i | 26 | -1
COc1cccc(C2/C(=C(/O)c3cnn(-c4ccccc4)c3C)C(=O)C(=O)N2CCN(C)C)c1OC (stereo not given) | 2 | 1 | · | -10 | 5 | i | 8 | -9
Cc1ccc(NC(=S)N2CCN(C3CCCCC3)CC2)cc1 | 6 | 7 | -27 | 10 | -20 | i | 13 | -8
O=C(O)c1ccc(COc2ccccc2/C=C2\NC(=O)N(Cc3ccccc3F)C2=O)cc1 | 1 | 1 | 0 | -12 | · | i | 0 | 21
